Bioassay records (PubChem)
RecA intein inh: inhibitors of M. tuberculosis RecA intein splicing | inhibition, %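 (about 9 µM by stock and volumes)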 | cell-free RecA intein splicing, fluorescence | AID 2221 | P9WHJ3 | 290,000 compounds, 0.75% hits; in the data active = inhibition above about 30%; inconclusive = no clear call, values can overlap the other calls;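 also: 0% = vehicle wells and 100% = reference inhibitor control wells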
Target sequence (P9WHJ3 whole entry, looked up): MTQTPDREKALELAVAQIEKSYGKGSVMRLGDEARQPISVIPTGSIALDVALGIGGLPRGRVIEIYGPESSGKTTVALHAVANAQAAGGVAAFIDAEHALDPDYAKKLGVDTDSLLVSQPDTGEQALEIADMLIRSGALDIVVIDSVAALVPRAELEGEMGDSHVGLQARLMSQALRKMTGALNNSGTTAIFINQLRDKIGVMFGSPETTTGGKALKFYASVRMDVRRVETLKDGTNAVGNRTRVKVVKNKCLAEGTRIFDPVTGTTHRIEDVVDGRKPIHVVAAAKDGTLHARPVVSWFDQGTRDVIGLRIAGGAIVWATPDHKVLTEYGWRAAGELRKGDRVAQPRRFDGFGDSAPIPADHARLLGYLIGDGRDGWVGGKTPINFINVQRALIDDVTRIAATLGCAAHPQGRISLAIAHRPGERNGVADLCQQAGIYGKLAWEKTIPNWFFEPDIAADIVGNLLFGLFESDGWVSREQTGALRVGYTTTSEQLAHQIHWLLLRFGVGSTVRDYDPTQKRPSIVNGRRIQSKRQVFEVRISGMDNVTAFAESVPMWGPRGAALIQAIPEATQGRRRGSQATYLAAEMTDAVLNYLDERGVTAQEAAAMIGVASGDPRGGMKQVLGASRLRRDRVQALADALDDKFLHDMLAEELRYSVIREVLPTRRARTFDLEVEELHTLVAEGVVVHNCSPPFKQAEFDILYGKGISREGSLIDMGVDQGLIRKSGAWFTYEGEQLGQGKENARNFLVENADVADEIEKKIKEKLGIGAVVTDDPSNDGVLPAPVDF
Mtb bLac sens: beta-lactam sensitization of Mtb H37Rv. inhibition, % at 25 µM. M. tuberculosis H37Rv growth with meropenem, percent inhibition; hits of this screen are not shown here. 330,000 compounds, 0.27% hits;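 active = about 74% or more and at least 40 points above the plate without the antibiotic, then above 30% in a dose series; inconclusive = first-round hits that could not be retested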;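 also: growth measured after seven days incubation then overnight dye step; 0% = bacteria only wells and 100% = bacteria with antibiotic; twin plates without the antibiotic show which effects depend on it; some results filed as inactive read as strong as hits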
YopH PTP inh: blocks Yersinia enterocolitica YopH tyrosine phosphatase. fluorescence Ex485/Em525. inhibition, %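 (about 10 µM by stock and volumes)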. 140,000 compounds, 0.16% hits;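 active = inhibition of 50% or more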;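 also: controls were vehicle for no effect and minimum signal wells for full effect; inactives centre near -20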
Mtb growth: M. tuberculosis H37Rv growth inhibitors, H37Rv strain (AID 1626); 220,000 compounds, 0.95% hits; M. tuberculosis H37Rv growth inhibition; higher % means a stronger effect; inhibition, % at 10 µM, or IC50 in µM where a hit was titrated;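 active = confirmed in a dose series; inconclusive = inhibition above 80% but not taken into the dose series; inactive = below 80% or under 30% at every dose of the series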;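 also: bacteria incubated seven days before Alamar blue readout; 0% = bacteria only wells and 100% = bacteria with antibiotic wells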
Arbovirus anti: arbovirus infection inhibition | arbovirus infection cell-based antiviral screen | inhibition, % at 10 µM | 200,000 compounds, 0.37% hits | AID 1251;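 active = inhibition from about 30%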;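 also: bluetongue infection of BSR cells; cell survival read as ATP light after 72 h; 0% = infected wells without compound and 100% = uninfected wells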
Arbovirus anti repeat: second read-out of Arbovirus anti, no call of its own (marks repeat the call); inhibition, %; measured here: 10K subset replicate screen; many hits read low in the repeat;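 first of two repeat runs on a subset; 0% = infected and 100% = uninfected wells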
* = called active by the depositor; ? = inconclusive; . = not tested or not shown.

SMILES | RecA intein inh | Mtb bLac sens | YopH PTP inh | Mtb growth | Arbovirus anti | others
NC(=O)c1cc2c3ccccc3ccn2c1-c1ccccc1 | 1.3 | 73 | . | . | .
NC1=NC(=Nc2ccc(Br)cc2)c2ccccc21 | -3.1 | -4 | -21 | 1% | -35
COCCNC(=S)N/N=C(\C)c1ccc(OC(F)F)cc1 | -0.2 | 23 | . | 1% | .
Cc1cc(NCCCN2CCOCC2)n2ncc(-c3ccccc3)c2n1 | 3.1 | 1 | -47 | 7% | -13
CC(C)(C)C(=O)COC(=O)c1ccc(N)c([N+](=O)[O-])c1 | -1.9 | 1 | . | -4% | 2
COc1ccc(NC(=O)C2CCN(S(=O)(=O)c3ccc(OC)c(OC)c3)CC2)cc1 | 0.7 | 12 | 6 | -7% | 5
CCOC(=O)N1CCN(C(=O)C(C)(C)Oc2ccc(Cl)cc2)CC1 | 0.8 | 4 | -56 | -6% | 7 | Arbovirus anti repeat=1
COc1cc(/C=N/NC(=O)c2ccoc2C)cc(OC)c1O | -5.7 | -8 | -35 | 0% | 9
Cc1ccc2c(c1)N(C(=O)NC1CCCCC1)C(C)(C)CC2C (stereo not given) | -0.6 | 2 | -1 | 1% | -3
O=C(NCCCC1CCCC1)C1CCC(=O)N(Cc2ccc(Cl)cc2)C1 (stereo not given) | 3.2 | 55 | . | . | .
CN(Cc1ccco1)S(=O)(=O)c1nnc(NC(=O)c2ccccc2)s1 | -1.8 | 3 | . | . | .
N#Cc1ccc(/C=C/C(=O)c2ccco2)cc1 | -3.4 | 83 | -25 | ? | 1
Cc1nn(CC(=O)NCc2ccc(-n3cccn3)cc2)c(C)c1[N+](=O)[O-] | 0.6 | -5 | -13 | -1% | 12
COc1ccccc1N1CCC(N2CCN(CC(C)(C)C)C(CCO)C2)CC1 (stereo not given) | 0.6 | 1 | . | . | .
COc1ccc(-c2nnn(CC(=O)N(CC(=O)NCCC(C)C)Cc3cccs3)n2)cc1OC | 2.3 | -16 | -19 | 0% | 0
CC1(OC(=O)c2cnc3ccccc3n2)C(=O)C=C2C=C(c3ccc(C#N)cc3)OC=C2C1=O (stereo not given) | -9.2 | -4 | . | -1% | .
CCN(CC)S(=O)(=O)c1ccc(OC(C)C)c(NC(=O)c2c3c(nc4ccccc24)CCN(Cc2ccccc2)C3)c1 | 16 | 7 | -32 | 13% | 5
CC1(C)C(=O)Nc2ccccc2N1C(=O)COC(=O)c1ccc(Cl)c(S(=O)(=O)NCc2ccccc2)c1 | 9.6 | -8 | -13 | -12% | -1
C#CCn1c(=NC(=O)c2cccs2)sc2cccc(OC)c21 | -5.0 | 8 | -45 | . | -11 | Arbovirus anti repeat=-9
CCOC(=O)C1=C(N)OC2=C(C(=O)CCC2)C12C(=O)N(CC(N)=O)c1ccccc12 (stereo not given) | -2.6 | -3 | -15 | -5% | 8
Cc1ccc(Cl)cc1NC(=S)N(Cc1cccs1)C1CCCC1 | 7.4 | -7 | . | 12% | 12
Cc1cc(C)n(CC(O)CN(c2cccc([N+](=O)[O-])c2)S(=O)(=O)c2ccccc2)n1 (stereo not given) | . | 0 | . | 3% | -11
Cc1c(NC(=O)C(C)OC(=O)CC2Sc3ccccc3NC2=O)c(=O)n(-c2ccccc2)n1C (stereo not given) | -0.8 | 12 | -47 | -14% | 6
O=C(Cc1ccc(Cl)cc1)NCCc1ccc(F)cc1 | 3.5 | 69 | . | . | .
COc1ccc(N2CCN(C(=O)c3cccc(F)c3)CC2)c([N+](=O)[O-])c1 | -1.0 | -14 | . | -4% | 0

An excerpt from above in order of length of the SMILES, rising:
SMILES | RecA intein inh | Mtb bLac sens | YopH PTP inh | Mtb growth | Arbovirus anti | others
CCOC(=O)N1CCN(C(=O)C(C)(C)Oc2ccc(Cl)cc2)CC1 | 0.8 | 4 | -56 | -6% | 7 | Arbovirus anti repeat=1
COc1ccc(-c2nnn(CC(=O)N(CC(=O)NCCC(C)C)Cc3cccs3)n2)cc1OC | 2.3 | -16 | -19 | 0% | 0
CC1(OC(=O)c2cnc3ccccc3n2)C(=O)C=C2C=C(c3ccc(C#N)cc3)OC=C2C1=O (stereo not given) | -9.2 | -4 | . | -1% | .

Later entries:
SMILES | RecA intein inh | Mtb bLac sens | YopH PTP inh | Mtb growth | Arbovirus anti | others
O=C1OCCC1Sc1nc2ccccc2[nH]1 (stereo not given) | 0.5 | -8 | -4 | -1% | 19
COC(=O)C1C2C=CC3(CN(CC4CCCO4)C(=O)C13)O2 (stereo not given) | -0.2 | -7 | 31 | -10% | 8
CCO[C@@H]1OC(C(=O)NC2CC2)=C[C@H](c2ccc3c(c2)OCO3)[C@H]1CCCO | 0.0 | -4 | . | 1% | -2
O=C(O)C1CCN(S(=O)(=O)c2cccnc2)CC1 | 2.6 | 18 | -31 | 1% | 1
O=S(=O)(Nc1cccnc1)c1ccc(Cl)cc1 | 0.1 | -4 | -22 | -8% | 7
CC1(Br)C2CCCC1C2S(=O)(=O)c1ccccc1 (stereo not given) | 0.6 | -2 | -28 | 0% | -5
O=C(O)c1[nH]c2ccccc2c1C=NCc1ccccc1Cl | -11 | -7 | . | -5% | 4
Cn1c2ccccc2c2c(C(=O)NCc3ccco3)cn(C3CCCCC3)c(=O)c21 | 7.6 | 48 | -14 | 9% | -3
COc1cccc(-c2cc(C(=O)Nn3cnnc3)c3ccccc3n2)c1 | -0.1 | 11 | -22 | 3% | 38* | Arbovirus anti repeat=-0.5*
CC1(C)SC(=S)N(/N=C/c2cccnc2)C1N(O)C(=O)NC1CCCCC1 (stereo not given) | -5.0 | 0 | . | -9% | .
CCC1ON(c2ccccc2)C2c3nc4ccccc4n3CC12 (stereo not given) | 0.4 | 4 | . | -4% | .
Nc1ccc(NS(=O)(=O)c2ccccc2)cc1 | -1.7 | 3 | . | 4% | 2
CCc1nc(SCC(=O)Nc2ccccc2C)n[nH]1 | 1.0 | ? | . | . | .
Cc1occc1C(=O)NNC(=O)NC12CC3CC(CC(C3)C1)C2 | -0.7 | -11 | 10 | . | 4
COc1ccc(CNC(=O)CCS(=O)(=O)c2cc3c(cc2Cl)NC(=O)CO3)cc1 | -3.4 | 8 | . | . | .
Cc1nc(C)c(C(=O)NNC(=O)c2ccc(Br)cc2)s1 | -0.3 | -3 | -3 | -4% | -9
O=C(O)c1ccc(/C=C/c2ccc3cccc(O)c3n2)cc1 | -10.0 | . | . | 74% | 5
CC(C)N1CCN(Cc2ccc(OC3CCCC3)cc2)CC1CCO (stereo not given) | -1.6 | -8 | . | . | .
CC(=O)Nc1nc(CC(C)C)cc(-c2ccco2)c1C#N | 0.1 | -5 | -11 | -5% | -1
O=C(NNc1ccccc1C(F)(F)F)c1cccs1 | -0.5 | 51 | . | -10% | .
O=C(O)c1cc2ccc3ccccc3c2[nH]1 | 0.5 | 5 | -17 | -3% | 2
Fc1cccc2sc(Nc3nnc(-c4ccccc4)o3)nc12 | 3.2 | ? | -47 | ? | -1
CCC(C)c1ccccc1OCCOCCN1CCCC1 (stereo not given) | -0.5 | 2 | -18 | -2% | -16
O=C(C1CCCN(Cc2nc(-c3cccs3)no2)C1)N1CCOCC1 (stereo not given) | -0.9 | -8 | . | -5% | 7
O=[N+]([O-])c1cccc(CN2CCC(Cc3ccccc3)CC2)c1 | -1.3 | -8 | . | . | .

By substructure: the entries above with an NH in an aromatic ring.
SMILES | RecA intein inh | Mtb bLac sens | YopH PTP inh | Mtb growth | Arbovirus anti | others
O=C1OCCC1Sc1nc2ccccc2[nH]1 (stereo not given) | 0.5 | -8 | -4 | -1% | 19
O=C(O)c1[nH]c2ccccc2c1C=NCc1ccccc1Cl | -11 | -7 | . | -5% | 4
CCc1nc(SCC(=O)Nc2ccccc2C)n[nH]1 | 1.0 | ? | . | . | .
O=C(O)c1cc2ccc3ccccc3c2[nH]1 | 0.5 | 5 | -17 | -3% | 2

More entries follow:
SMILES | RecA intein inh | Mtb bLac sens | YopH PTP inh | Mtb growth | Arbovirus anti | others
CC(C)OCCCn1c(SC(C)C(=O)NCC2CCCO2)nc2cc(Cl)ccc2c1=O (stereo not given) | 0.8 | 1 | . | . | .
COc1ccccc1N1CCNCC1 | -2.0 | 2 | . | -11% | .
Nc1nc(NCCCN2CCOCC2)nc(Nc2ccccc2)c1[N+](=O)[O-] | -1.7 | 3 | -18 | 2% | 18
CC(=O)c1ccc(N2CCN(C(=O)C3CCCN(S(=O)(=O)c4c(C)[nH]c(=O)[nH]c4=O)C3)CC2)cc1 (stereo not given) | -5.5 | -1 | . | 2% | 9
O=C(CCCOc1ccccc1)Nc1nc2ccccc2[nH]1 | 2.7 | -3 | . | 6% | 6
O=C(Nc1ccc(F)cc1)Nc1cccnc1 | 0.4 | 0 | . | . | .
Cc1nn(Cc2ccc(C(=O)Nc3nc4c(C)cccc4s3)o2)c(C)c1Br | 4.0 | -7 | 17 | 10% | -36
Cc1c(F)cccc1NS(=O)(=O)c1ccc(OCCNS(C)(=O)=O)cc1 | -4.1 | -5 | . | 5% | 2
COC(=O)Cn1cc(C(=O)OC)c2ccccc21 | 1.2 | -3 | 15 | -4% | 8
O=C(CC1Oc2ccccc2NC1=O)NCc1ccc(Cl)cc1 (stereo not given) | . | 7 | -36 | 2% | 11
O=S(=O)(NCc1cc(-c2ccc(Cl)cc2)no1)c1ccccc1 | -4.4 | 1 | -50 | -7% | -3
CCOC(=O)c1cc(S(=O)(=O)N2CC(C)CC(C)C2)cn1C (stereo not given) | -3.1 | -1 | . | . | .
Cc1cc(=O)c(C(=O)O)nn1-c1ccc(Cl)cc1 | -15 | 1 | . | -4% | .
O=C(COc1ccc2ccccc2c1Br)NC(=S)Nc1cccc(CO)c1 | 1.6 | 0 | -33 | 3% | -4
Cc1cccc(N2N=C(C(=O)O)CCC2=O)c1 | -2.3 | -9 | . | . | .
O=C(N/N=C/c1cn(-c2ccccc2)nc1-c1cc2ccccc2o1)c1c[nH]c2ccccc12 | -0.5 | 57 | . | ? | -14
NC(=O)CCn1c(C(=O)c2ccc(Cl)cc2)c2ccccc2[n+]1[O-] | 0.8 | -5 | . | . | .
Cc1ccc2c(CN(C)Cc3cccc(F)c3)cc(=O)oc2c1C | 13 | -1 | . | . | .
CCSc1nnc(NC(=O)C2Cc3ccccc3CN2S(=O)(=O)CC)s1 (stereo not given) | -1.2 | 94 | -20 | ? | -26
CSCC[C@H](NC(=O)CCCn1nnc2ccccc2c1=O)C(=O)O | -0.3 | -2 | . | -6% | .
CC(C)(C)c1ccc(OCc2ccc(C(=O)N3CCOCC3)o2)cc1 | 1.8 | 3 | . | 0% | -10
Brc1ccc(OCc2nnc3n2CCC3)cc1 | 1.0 | 81 | -15 | -7% | 4
S=C(NCCN1CCOCC1)Nc1ccc(Cl)cc1 | 5.3 | 1 | -6 | 4% | 10
O=C(Nc1c(Cl)cc(Cl)cc1C(=O)NCc1cccnc1)c1ccc(Cl)cc1Cl | . | -8 | -8 | -4% | -1
COc1ccccc1CNc1cc(C)ccn1 | -2.2 | -4 | . | . | .

The list goes on:
SMILES | RecA intein inh | Mtb bLac sens | YopH PTP inh | Mtb growth | Arbovirus anti | others
CCn1c(=O)ccc2cc([N+](=O)[O-])ccc21 | -0.4 | -5 | . | -2% | 4
O=C(COc1ccc(/C=N/NC(=O)c2ccncc2)cc1)Nc1ccccc1 | 4.0 | 97 | . | . | .
O=C(O)c1ccc2c(c1)C(=O)N(c1ccc(OCc3ccccc3)cc1)C2=O | -3.3 | 53 | . | . | .
O=c1nc2n(c3c4c(sc13)CCC4)CCC2 | -1.5 | 5 | -31 | -9% | 4
Nc1nc2c3ccccc3nc(C3CC3)n2n1 | -1.8 | -3 | 11 | -10% | 2
COc1ccccc1-n1nnnc1S(=O)(=O)Cc1ccc(Cl)cc1 | 82* | 72 | . | . | -44
Cc1ccc(NC(=O)N2CCCC(c3ccccc3)C2)cc1 (stereo not given) | 1.6 | ? | . | . | .
CC1=C(C(=O)Nc2cccc(F)c2)C(c2ccsc2)C2=C(CC(C)(C)CC2=O)N1 (stereo not given) | -13 | 4 | -22 | 7% | -16
COc1ccc(CN2C(=O)c3cccnc3C2=O)cc1S(=O)(=O)NCc1ccc(C)cc1 | 0.8 | 3 | . | . | .
Cc1ccc(CC(=O)Nc2nc3ccccc3s2)cc1 | -0.1 | 10 | 19 | -11% | 17
CCCc1cc(NC(=O)CCl)n(-c2ccccc2)n1 | . | 99 | . | 73% | 5
Cc1ccccc1NC(=O)c1[nH]cnc1C(=O)NN | -2.8 | 4 | . | . | .
Cc1ccc(-c2onc3ccc(C(=O)O)cc23)cc1 | 1.8 | -3 | . | . | .
Cn1ccnc1SCC(=O)N(C1CCCCC1)C1CCCCC1 | 0.9 | -10 | -51 | 4% | 7
COC(=O)[C@@H](NC(=O)Nc1ccccc1F)C(C)C | 1.3 | -10 | -39 | -8% | -4
Cc1ccc(CC(CC(=O)O)C(=O)NCc2ccccc2)cc1 (stereo not given) | 0.9 | 2 | -24 | 0% | -9

These rows are one share of the data; the hit share may differ from the screen's.
